Screens: PubChem, several laboratories
Insulin prom inh: TRM-6 insulin promoter activity inhibition. inhibition, % at 2 µM. 0.9% of 130,000 active. TRM-6 cells (human fetal islet line), insulin promoter-eGFP reporter, imaging; reporter expression induced with tamoxifen;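 active = inhibition above the mean plus 3 SD, with well images judged a real hit on visual review, cut at about 60% in these data, passing the limit was not always enough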
GALR2 agonist: agonists of human galanin receptor 2 (GALR2); O43603; GALR2-expressing cells, agonist activation read-out; activation, %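 (tested at 5 µM)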; 0.48% of 140,000 active; AID 803;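 active = above mean plus 3 SD of all compounds, about 5% in these data, not always enough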;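 also: 0% = vehicle buffer wells and 100% = reference agonist at full effect; tested in CHO reporter cells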
Target sequence (O43603 whole entry, looked up): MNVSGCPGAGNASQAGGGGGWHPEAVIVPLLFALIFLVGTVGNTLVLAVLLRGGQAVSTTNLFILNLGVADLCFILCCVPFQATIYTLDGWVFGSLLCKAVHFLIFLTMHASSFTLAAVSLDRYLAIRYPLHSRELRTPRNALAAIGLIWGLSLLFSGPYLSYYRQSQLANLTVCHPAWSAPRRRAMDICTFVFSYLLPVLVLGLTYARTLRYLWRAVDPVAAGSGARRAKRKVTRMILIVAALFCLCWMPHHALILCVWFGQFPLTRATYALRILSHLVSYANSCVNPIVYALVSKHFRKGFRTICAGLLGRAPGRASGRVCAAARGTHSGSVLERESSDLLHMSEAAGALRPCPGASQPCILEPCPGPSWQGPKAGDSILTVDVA
PKD1 kinase inh: inhibitors of human PKD1 kinase; 0.056% of 200,000 active; Q15139; PKD1 kinase fluorescence polarization assay; inhibition, %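 (about 10 µM by stock and volumes)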;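 active = inhibition of 50% or more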;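 also: controls were vehicle for no effect and a reference inhibitor for full effect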
RGS16-Gao HTS: regulators of human RGS16-Galphao interaction; O15492+P09471; bead-based flow cytometry RGS16-Galphao binding, fluorescence; actives lie on both sides; binding response (% of control), % at 10 µM; 0.38% of 220,000 active; AID 1441;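 active = below 25% or above 175%, edge rows of some plates excepted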;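 also: Galphao activated by GDP with aluminum fluoride before binding; 100% = wells without compound and 0% = beads without RGS; some results beyond the cut were filed as inactive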
Target sequence (O15492 whole entry, looked up): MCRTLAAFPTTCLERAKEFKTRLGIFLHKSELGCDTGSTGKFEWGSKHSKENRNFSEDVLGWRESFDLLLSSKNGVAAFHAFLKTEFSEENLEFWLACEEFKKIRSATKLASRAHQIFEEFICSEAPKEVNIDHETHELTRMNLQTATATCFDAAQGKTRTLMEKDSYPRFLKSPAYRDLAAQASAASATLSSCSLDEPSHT
Target sequence (P09471 whole entry, looked up): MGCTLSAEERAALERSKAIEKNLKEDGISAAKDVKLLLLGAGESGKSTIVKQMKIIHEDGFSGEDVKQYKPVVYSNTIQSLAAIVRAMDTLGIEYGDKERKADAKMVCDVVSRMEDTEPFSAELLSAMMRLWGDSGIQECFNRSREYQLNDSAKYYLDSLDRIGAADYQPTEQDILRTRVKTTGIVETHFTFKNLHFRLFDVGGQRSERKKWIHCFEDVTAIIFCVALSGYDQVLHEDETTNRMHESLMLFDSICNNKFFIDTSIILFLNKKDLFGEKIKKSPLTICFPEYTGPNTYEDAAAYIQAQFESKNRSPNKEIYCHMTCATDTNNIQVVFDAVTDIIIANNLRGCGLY
HSV replic up: HSV replication enhancement. HSV replication augmentation in cells, fold increase. maximum fold increase. 0.005% of 220,000 active;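 active = peak rise of 1.5-fold or more in the series; tested in PC3 cells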;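 also: first round at 10 µM; read as green reporter fluorescence; hits show the peak of a series up to 25 µM; 1 = signal of infected wells without compound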
Insulin prom inh cell count: recorded beside Insulin prom inh, whose call it bears; normalized cell count, %; measured here: cell count, toxicity; reference of the scale not given here;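 cells exposed to compound for 48 h; stained nuclei by imaging scaled within each plate; lower means fewer cells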
HSV replic up primary fold: second read-out of HSV replic up, no call of its own (marks repeat the call); fold increase; compound at 10 µM; measured here: primary screen fold increase 10 uM; tested in PC3 cells;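 GFP signal in the first replicate; 1 = infected wells without compound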
The depositor's hits bear a star; i = inactive; / = not tested or not shown.

SMILES | Insulin prom inh | Insulin prom inh cell count | GALR2 agonist | PKD1 kinase inh | RGS16-Gao HTS | HSV replic up | HSV replic up primary fold
CN(C)C(CNc1ncnc2sccc12)c1cccs1 (configuration not stated) | / | / | / | 8 | 103 | i | 1.1
CCOc1cc(/C=N/NC(N)=S)cc(Br)c1OCc1ccccc1C | 18 | 79 | -4.1 | -13 | 99 | i | 0.77
COc1cc(NC(=O)COC(=O)/C=C/c2ccc(Cl)cc2Cl)cc(OC)c1 | 57 | 119 | -2.0 | -12 | 96 | i | 0.91
CC(C)CNC(=O)c1ccccc1-c1ccccc1C(=O)O | -13 | 66 | -0.7 | 2 | 106 | i | 0.97
N#Cc1cnn2c1nc(N1CCOCC1)c1ccccc12 | 36 | 111 | -0.5 | 1 | 98 | i | 0.98
O=C(Oc1ccccc1/C=C\C(=O)c1cc2ccccc2o1)c1cccc(F)c1 | / | / | -0.1 | -12 | 79 | i | 1
Nc1nonc1OCCOCCOCCOc1nonc1N | 27 | 106 | / | 8 | 101 | i | 0.87
O=C(O)c1ccc(NCc2nc3ccccc3n2Cc2ccccc2)cc1 | / | / | / | / | 114 | i | 0.97
O=C(C[n+]1cc(-c2ccccc2)n2c1CCCCC2)c1ccc(Cl)cc1 | / | / | -0.7 | -3 | 124 | i | 0.99
O=C(NCc1ccco1)C1CC2CCC1C2 (configuration not stated) | 0 | 94 | -1.4 | 1 | 173 | i | 1
Nc1c(C2=NCCO2)nnn1Cc1ccccc1 | -43 | 106 | -0.5 | -9 | 166 | i | 1.2
Cc1ccc(NC(=O)c2ccccc2N(C)S(=O)(=O)c2ccccc2)c(C)c1 | -44 | 47 | -1.3 | 1 | 69 | i | 1
COc1ccc(C2=NNC(=Nc3cc(S(=O)(=O)N(C)C)ccc3C)SC2)c(OC)c1 | / | / | / | / | 97 | i | 0.73
O=C1CCCCC(=O)N(c2ccccc2)c2ccccc21 | / | / | -2.2 | -17 | 103 | i | 0.81
CC1(C(=O)O)COC(c2ccc(Cl)cc2)OC1 (configuration not stated) | / | / | / | / | 101 | i | 0.97
N#Cc1nc(-c2ccco2)oc1N1CCN(Cc2ccccc2)CC1 | -43 | 132 | 0.5 | -4 | 91 | i | 0.95
NC(=O)Cc1nc(-c2ccc(F)cc2)cs1 | / | / | / | / | 94 | i | 1
COc1ccc(N2CCN(C(=O)CSc3nnc4c5cc(C)ccc5n(C)c4n3)CC2)cc1 | / | / | -1.8 | 3 | 98 | i | 0.86
O=C(O)c1cc2cc(F)ccc2[nH]1 | 0 | 103 | -1.6 | -2 | 101 | i | 0.93
COc1ccc(C(=O)CSc2nnc3ccc(-c4ccccn4)nn23)cc1 | 25 | 92 | / | -2 | 101 | i | 0.94
O=C(/C=C1\SC(=O)N(CC(=O)Nc2ccc(F)cc2)C1=O)Nc1ccc(Cl)cc1 | 20 | 48 | 0.6 | -11 | 103 | i | 0.97
Cc1ccc(-n2nc3c(c2NC(=O)C(C)(C)C)CSC3)c(C)c1 | / | / | 0.0 | -3 | 96 | i | 0.78
O=C(CCCOc1ccc(Cl)cc1Cl)N1CCN(c2ccccn2)CC1 | -4 | 110 | -3.5 | -10 | 101 | i | 0.61
CC(C)(C)c1nnc(N/N=C/c2cc(Br)ccc2O)n(N)c1=O | 40 | 71 | 0.2 | 13 | 99 | i | 0.58
O=C(OCC(=O)c1c[nH]c2ccccc12)c1ccc(Br)o1 | 9 | 63 | -2.3 | -5 | 103 | i | 0.98
(more compounds)
SMILES | Insulin prom inh | Insulin prom inh cell count | GALR2 agonist | PKD1 kinase inh | RGS16-Gao HTS | HSV replic up | HSV replic up primary fold
O=C(N/N=C/c1c[nH]c2ccccc12)c1cc(-c2cccc3ccccc23)n[nH]1 | / | / | -1.2 | 3 | 86 | i | 0.86
N#Cc1c(N)n(CCc2ccc(F)cc2)c2nc3ccccc3nc12 | -20 | 93 | 15* | 8 | 104 | i | 1
COc1ccc(C2CC(c3ccc(Cl)cc3)n3nc(N)nc3N2)cc1 (configuration not stated) | / | / | 0.8 | -6 | 93 | i | 0.83
Cn1c(C(=O)N2CCCC(C(=O)c3ccc(C(F)(F)F)cc3)C2)cc(=O)n(C)c1=O (configuration not stated) | 13 | 181 | / | -2 | 109 | i | 0.95
COc1ccc(N(C(=O)CNC(=O)c2cccs2)C(C(=O)NCC2CCCO2)c2ccccc2)cc1OC (configuration not stated) | 50 | 108 | / | -1 | 103 | i | 0.97
COc1ccccc1NS(=O)(=O)c1ccc(O)c(C(N)=O)c1 | -7 | 100 | -1.5 | -15 | 99 | i | 1
COc1cc(OC)c2c(C)cc(=O)oc2c1 | -12 | 36 | 0.5 | -8 | 112 | i | 0.92
CC1CN(C(=O)CN2C(=O)NC3(CCCCCCC3)C2=O)CC(C)O1 (configuration not stated) | / | / | -0.3 | -3 | 101 | i | 0.95
COc1cc(CNC(=O)c2nc(Cn3nc(C)c(Br)c3C)no2)cc(OC)c1 | / | / | / | 6 | 99 | i | 1
COCc1c(C(=O)Nc2ccc(Cl)cc2F)oc2ccccc12 | -27 | 146 | / | -9 | 102 | i | 0.91
CSCCC(NC(=O)c1cccc([N+](=O)[O-])c1)c1nc2ccccc2[nH]1 (configuration not stated) | 4 | 80 | 0.1 | -4 | 105 | i | 0.97
c1ccc(CCNc2ncnc3ccccc23)cc1 | / | / | / | -2 | 108 | i | 1.1
CC(=O)N1c2ccc3ccccc3c2C(C)CC12CCCCC2 (configuration not stated) | 11 | 95 | -1.3 | -1 | 110 | i | 0.97
CC1CCc2nc(/C(C#N)=C/c3ccncc3)sc2C1 (configuration not stated) | / | / | / | 0 | 101 | i | 1
CS(=O)(=O)c1ccc(C(=O)Nc2ccccc2N2CCOCC2)c(Cl)c1 | / | / | / | -6 | 99 | i | 1.1
O=C(CN1CCN(c2ccccc2)CC1)Nc1cccc([N+](=O)[O-])c1 | 42 | 177 | / | 2 | 105 | i | 0.96
COc1ccc(/C=C/C(O)=C2/C(=O)N(C)C3(C)CC2c2ccccc2O3)cc1 (configuration not stated) | 10 | 128 | -0.5 | 13 | 97 | i | 0.73
CCc1ccc(NC(=O)C(NS(=O)(=O)c2cccc3nsnc23)c2ccccc2)cc1 (configuration not stated) | -11 | 117 | -2.3 | 4 | 94 | i | 0.88
ClC1(Cl)CC1Cn1cnc2ccccc21 (configuration not stated) | / | / | / | -4 | 86 | i | 0.97
Oc1ccccc1CNc1cnc2ccccc2c1 | -24 | 109 | -0.9 | 7 | 82 | i | 0.92
CCCCOC(=O)c1ccc(NC(=O)C(=O)NCC2CCCO2)cc1 (configuration not stated) | 4 | 107 | -1.4 | -1 | 109 | i | 0.96
CCc1nnc(NC(=O)CCc2c[nH]c3ccccc23)s1 | / | / | / | -2 | 98 | i | 0.94
O=C1CCC/C(=N\NC(=O)c2ccc(COc3ccccc3-c3ccccc3)cc2)C1 | 22 | 65 | / | -6 | 126 | i | 1.2
COc1ccccc1-c1nc(C#N)c(N2CCN(c3cccc(Cl)c3)CC2)o1 | 43 | 172 | -3.6 | 8 | 58 | i | 1.1
COc1ccc(CCNC(=O)CCC(=O)Nc2ccc3nc(N4CCN(C)CC4)cc(C)c3c2)cc1OC | / | / | / | -7 | 99 | i | 0.97

Twelve entries from above, in markdown.
| mol | Insulin prom inh | Insulin prom inh cell count | GALR2 agonist | PKD1 kinase inh | RGS16-Gao HTS | HSV replic up | HSV replic up primary fold |
| --- | --- | --- | --- | --- | --- | --- | --- |
| CC1CCc2nc(/C(C#N)=C/c3ccncc3)sc2C1 (configuration not stated) | / | / | / | 0 | 101 | i | 1 |
| CS(=O)(=O)c1ccc(C(=O)Nc2ccccc2N2CCOCC2)c(Cl)c1 | / | / | / | -6 | 99 | i | 1.1 |
| O=C(CN1CCN(c2ccccc2)CC1)Nc1cccc([N+](=O)[O-])c1 | 42 | 177 | / | 2 | 105 | i | 0.96 |
| COc1ccc(/C=C/C(O)=C2/C(=O)N(C)C3(C)CC2c2ccccc2O3)cc1 (configuration not stated) | 10 | 128 | -0.5 | 13 | 97 | i | 0.73 |
| CCc1ccc(NC(=O)C(NS(=O)(=O)c2cccc3nsnc23)c2ccccc2)cc1 (configuration not stated) | -11 | 117 | -2.3 | 4 | 94 | i | 0.88 |
| ClC1(Cl)CC1Cn1cnc2ccccc21 (configuration not stated) | / | / | / | -4 | 86 | i | 0.97 |
| Oc1ccccc1CNc1cnc2ccccc2c1 | -24 | 109 | -0.9 | 7 | 82 | i | 0.92 |
| CCCCOC(=O)c1ccc(NC(=O)C(=O)NCC2CCCO2)cc1 (configuration not stated) | 4 | 107 | -1.4 | -1 | 109 | i | 0.96 |
| CCc1nnc(NC(=O)CCc2c[nH]c3ccccc23)s1 | / | / | / | -2 | 98 | i | 0.94 |
| O=C1CCC/C(=N\NC(=O)c2ccc(COc3ccccc3-c3ccccc3)cc2)C1 | 22 | 65 | / | -6 | 126 | i | 1.2 |
| COc1ccccc1-c1nc(C#N)c(N2CCN(c3cccc(Cl)c3)CC2)o1 | 43 | 172 | -3.6 | 8 | 58 | i | 1.1 |
| COc1ccc(CCNC(=O)CCC(=O)Nc2ccc3nc(N4CCN(C)CC4)cc(C)c3c2)cc1OC | / | / | / | -7 | 99 | i | 0.97 |

The results go on.
SMILES | Insulin prom inh | Insulin prom inh cell count | GALR2 agonist | PKD1 kinase inh | RGS16-Gao HTS | HSV replic up | HSV replic up primary fold
COc1cccc(-c2nc(NC(C)C)c3ccccc3n2)c1O | / | / | 1.2 | 6 | 105 | i | 0.73
CC12CCC(C(=O)N(NC(=O)c3ccc(O)cc3)C1=O)C2(C)C (configuration not stated) | / | / | -1.1 | -1 | 84 | i | 0.97
CCC(CC)C(=O)N1CCN(Cc2nc3ccccc3c(=O)[nH]2)CC1 | 10 | 183 | / | -2 | 123 | i | 0.92
CCOCCCNC(=O)C1CCC(CNS(=O)(=O)c2ccc(Cl)cc2)CC1 (configuration not stated) | 0 | 98 | -0.4 | -7 | 108 | i | 0.9
COc1cc(NC(=O)C2CC2)c(OC)cc1NC(=O)CCC(=O)NC1CCN(Cc2ccccc2)CC1 | / | / | / | 2 | 105 | i | 0.83
N#Cc1nccnc1N1CCN(C(=O)Nc2ccccc2)CC1 | / | / | / | / | 98 | i | 0.85
CC(C)CN1C(=O)/C(=C/c2ccco2)NC1=S | 17 | 62 | -0.4 | -9 | 101 | / | /
O=C(CSc1ncn[nH]1)Nc1nnc(-c2ccccc2)s1 | / | / | -3.7 | -9 | 101 | i | 0.84
COC(=O)CC1Oc2ccccc2N(Cc2ccccc2)C1=O (configuration not stated) | -57 | 91 | -0.2 | -1 | 96 | i | 0.98
CCOc1cc(NC(=S)N2CCC(C(N)=O)CC2)c(C(=O)OC)cc1OCC | 0 | 121 | / | -6 | 103 | i | 0.95
CC(=O)CSc1cc(C)nc2c(-c3ccccc3)c(C)nn12 | / | / | / | / | 100 | i | 0.93
CC(=NCc1cccnc1)C1=C(O)c2ccccc2C1=O | / | / | -1.9 | -15 | 99 | i | 0.98
CC(=O)c1c(N2CCN(C)CC2)nc(=S)n(Cc2ccccc2)c1C | -53 | 63 | -0.5 | -6 | 106 | i | 0.99
CCCCCC1CC(CC#CCN2CCOCC2)C(=O)O1 (configuration not stated) | 0 | 91 | -1.1 | 1 | 90 | i | 0.91
COC(=O)[C@H](C)NC(=O)NCc1ccccc1 | / | / | / | / | 95 | i | 1
Cc1[nH]nc(SCC(=O)NCc2ccc(Cl)cc2)c1[N+](=O)[O-] | -53 | 144 | 1.6 | -1 | 102 | i | 0.93
CC(C)CCNC(=O)CN(Cc1ccco1)C(=O)c1snc(C(N)=O)c1N | -17 | 159 | / | -4 | 94 | i | 0.97
COc1ccc(CNC(=O)/C=C/c2cc([N+](=O)[O-])ccc2OC(F)F)cc1OC | -52 | 116 | -0.2 | -11 | 71 | i | 0.9
COc1ccccc1NCC(O)COc1ccc(C(C)(C)C)cc1 (configuration not stated) | / | / | / | -5 | 99 | i | 0.83
c1ccc(COc2ccccc2CNC2CCCC2)cc1 | -32 | 116 | / | -7 | 100 | i | 0.89
O=C(Cn1cccc(C(F)(F)F)c1=O)c1ccc(Cl)cc1 | / | / | / | / | 102 | i | 1
O=C(O)CCC1COc2ccccc2O1 (configuration not stated) | 10 | 69 | -0.6 | -4 | 102 | i | 1.1
COC(=O)Cn1c(=NC(=O)c2ccc(OC)c(OC)c2)sc2cc(OC)ccc21 | -22 | 135 | 3.1 | -4 | 109 | i | 0.99
O=S(=O)(c1ccc(OCC(O)CN2CCN(c3ccc(F)cc3)CC2)cc1)N1CCOCC1 (configuration not stated) | / | / | -1.7 | -2 | 100 | i | 0.93
Cc1nn(C(C)C(=O)O)c(C)c1[N+](=O)[O-] (configuration not stated) | 4 | 38 | / | -4 | 110 | i | 0.97
O=C(COC(=O)C1CC2C=CC1C2)NCc1ccco1 (configuration not stated) | / | / | 1.2 | -13 | 88 | i | 0.98
COC(=O)Nc1ccc(S(=O)(=O)N2CCCC(C(=O)N3CCCCCC3)C2)cc1 (configuration not stated) | / | / | / | -2 | 103 | i | 1.1
